gsp antagonist: qHTS for Antagonists of gsp, the Etiologic Mutation Responsible for Fibrous Dysplasia/McCune-Albright Syndrome: qHTS; AID 624288, 2012; 340,000 tested, 0.4% active; gsp-mutant cells, cAMP HTRF, 30 min; control for the full effect not named in the record; Potency, µM (titrated, usually from 76.9 µM), without a hit: at the highest dose activity change, negative = inhibition, most hits filed as inhibitors; active = falling curve of any shape with a large fitted effect; inconclusive = falling curve, mostly with a smaller effect; inactive = flat or rising curve; cell line not stated here;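 further: intracellular cAMP measured with PDE inhibitor Ro 20-1724 present during compound exposure; potency means the concentration at half of the fitted maximal effect; on the % scale 0 is the no-effect control and ±100 the full control effect; nearly all actives have a fitted effect of over 65% in size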
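G418-selected cells were plated in DMEM/10% FBS for 16-24 h at 37C, then treated with compounds plus the PDE inhibitor […] (300 uM solution added) for 30 min at 37C. Intracellular cAMP was measured by HTRF after 30 min lysis at room temperature.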
Sfp PPTase inh: qHTS Assay for Inhibitors of Bacillus subtilis Sfp phosphopantetheinyl transferase (PPTase). 4'-phosphopantetheinyl transferase ffp (Bacillus subtilis), Q9F4F7. AID 1490, 2009. Potency, µM, inactives show max response, negative = inhibition, actives largely listed as inhibitors. 310,000 tested, 3.5% active. Biochemical Sfp PPTase activity, qHTS; active means well fitted inhibition curve with a large enough effect; inconclusive means small, poorly fitted or top-dose-only effect, or another doubt; inactive means no such curve, though single readings can be large or run the other way;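 further: the enzyme is Sfp with the accession as filed and its product quenches rhodamine fluorescence; potency means the concentration at half of the fitted maximal effect; 0% = enzyme reaction without inhibitor and -100% = no enzyme wells; top concentration of the series not given in the record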
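Fluorescence-quenching assay: 15 nM Sfp-PPTase preincubated 15 min at room temperature with compound, then 5 uM rhodamine-CoA and 12.5 uM BHQ-2-labelled YbbR peptide added. Fluorescence (ex 525/em 598 nm) read at start and after 30 min; difference gives rate.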
ClpP mod: qHTS Assay for Activators of ClpP | purified B. subtilis ClpP, FRET peptide cleavage, 20 min | ATP-dependent Clp protease proteolytic subunit (Bacillus subtilis (strain 168)), P80244 | Potency, µM (top dose mostly 57.5 µM), for the others: top-dose activity change, negative = active | 340,000 tested, 1.9% active; active = well fitted falling curve with a large enough effect; inconclusive = small, poorly fitted or top-dose-only effect; inactive = no such curve, though single readings can be large or run the other way; further: potency means the concentration at half of the fitted maximal effect; the source files actives as falling curves though it sought activators and does not explain the sign; nearly all actives have a fitted effect of over 65% in size; many hits overshoot -100%
Target sequence (P80244 whole entry, looked up): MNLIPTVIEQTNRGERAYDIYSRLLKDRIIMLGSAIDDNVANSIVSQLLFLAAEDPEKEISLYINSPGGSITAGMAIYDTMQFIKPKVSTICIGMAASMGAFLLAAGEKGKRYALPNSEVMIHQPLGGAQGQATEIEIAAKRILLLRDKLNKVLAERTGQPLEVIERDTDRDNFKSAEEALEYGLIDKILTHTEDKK
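ClpP 10 microg/mL final, pH 8 Tris/KCl buffer with BSA, glycerol, Tween-20; compound pinned in; FRET-FV substrate; RT 20 min; Ex320/Em430; ΔFRET vs ADEP 5.8 microM, DMSO, no enzyme.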
gsp ag: qHTS for Agonist of gsp, the Etiologic Mutation Responsible for Fibrous Dysplasia/McCune-Albright Syndrome: qHTS; gsp mutant cells, cAMP HTRF, 30 min; control for the full effect not named in the record; Potency, µM (top dose mostly 76.9 µM), without a hit: at the highest dose activation (cAMP increase), most hits filed as activators; 340,000 tested, 0.13% active; active = well fitted activation curve with a large enough effect; inconclusive = small, poorly fitted or top-dose-only effect, or another doubt; inactive = no such curve, though single readings can be large or run the other way; cell line not stated here;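 further: phosphodiesterase inhibitor Ro 20-1724 added with compounds to block cAMP breakdown; potency means the concentration at half of the fitted maximal effect; nearly all actives have a fitted effect of over 60% in size; about a fifth of the inactives were tested at one dose only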
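Cells stably selected in G418 were plated at 2000/well, grown 16-24 hr, then given compounds in DMSO with the PDE inhibitor […] (300 uM solution added) for 30 min at 37C; cAMP was read by HTRF.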
Menin MLL FP FL: qHTS Assay for Inhibitors Targeting the Menin-MLL Interaction in MLL Related Leukemias: Competition With Fluorescein Labeled MLL-derived Peptide; Fluorescence polarization, fluorescein-MLL peptide displacement from menin; AID 1766, 2009; 290,000 tested, under 10 active; FP activity change, % at 61.4 µM; inconclusive = falling polarisation curve, or a change in total fluorescence; inactive = total fluorescence flat and polarisation flat or rising; no compound was filed as active; the % refers to the polarisation; negative = inhibition;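 further: % of control where 0% means no effect; inhibitors lower the polarisation; unlabelled MLL peptide was the positive control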
TRPV1 PAM: HTS Assay for Compounds that Act as Potentiators of the Vanilloid Receptor 1 | Transient receptor potential cation channel subfamily V member 1 (Homo sapiens), Q8NER1 | TRPV1-expressing cells, Fluo-8 calcium influx, capsaicin EC20 potentiation; host cell line not named in the record; control for the full effect not named in the record | potentiation, % at 8.33 µM | 320,000 tested, 0.02% active | AID 540277, 2011; active means potentiation above 80%; inconclusive means 30% to 80%; inactive means below 30%; further: 0% is about no effect
Target sequence (Q8NER1 whole entry, looked up): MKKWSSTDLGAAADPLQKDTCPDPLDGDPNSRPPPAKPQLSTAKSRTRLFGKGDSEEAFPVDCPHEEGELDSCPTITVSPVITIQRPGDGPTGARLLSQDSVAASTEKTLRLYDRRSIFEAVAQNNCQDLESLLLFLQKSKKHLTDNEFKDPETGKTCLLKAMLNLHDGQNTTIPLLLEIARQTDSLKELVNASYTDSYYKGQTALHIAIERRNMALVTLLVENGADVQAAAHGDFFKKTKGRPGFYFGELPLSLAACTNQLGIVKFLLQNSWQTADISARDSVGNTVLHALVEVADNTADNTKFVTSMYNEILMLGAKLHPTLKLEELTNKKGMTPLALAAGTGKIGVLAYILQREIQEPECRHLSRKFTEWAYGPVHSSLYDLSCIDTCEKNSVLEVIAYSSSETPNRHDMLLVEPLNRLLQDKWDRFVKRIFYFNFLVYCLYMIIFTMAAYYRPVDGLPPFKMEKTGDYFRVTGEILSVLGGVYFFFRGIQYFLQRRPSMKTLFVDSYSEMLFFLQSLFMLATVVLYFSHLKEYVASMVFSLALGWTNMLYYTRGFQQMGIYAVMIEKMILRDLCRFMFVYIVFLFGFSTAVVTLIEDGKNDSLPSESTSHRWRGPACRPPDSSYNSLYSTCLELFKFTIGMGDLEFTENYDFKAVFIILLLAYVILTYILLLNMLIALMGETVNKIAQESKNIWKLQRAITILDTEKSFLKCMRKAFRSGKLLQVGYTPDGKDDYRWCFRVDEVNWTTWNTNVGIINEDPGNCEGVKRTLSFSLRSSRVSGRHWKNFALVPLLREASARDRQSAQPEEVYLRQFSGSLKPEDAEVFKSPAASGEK
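TRPV1-expressing cells were cultured overnight at 35.5C and loaded with Fluo-8 calcium dye for 40 to 90 min at room temperature. After a 10 s baseline, compound was added and calcium influx was read kinetically for 3 min (ex 480/em 520 nm).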
CtBP-E1A inh: qHTS Assay for Inhibitors of the CtBP/E1A Interaction. AlphaScreen GST-E1A/His-CtBP binding, 1536-well; hits give low values; control for the full effect not named in the record. activity change, % (concentration not given with the values). 340,000 tested, 0.49% active. AID 651724, 2012; in the data active means activity change below about -65%; inconclusive means about -30% to -65%; inactive means above about -30%; further: on the % scale 0 is the no-effect control and ±100 the full control effect
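GST-E1A and His-tagged CtBP (125 nM each as 5X stock) were preincubated with pin-transferred compound for 2 h at 37 °C in the dark, then glutathione donor and nickel acceptor beads were added for 1 h before AlphaScreen reading.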
* hit, by the source's call; ? = inconclusive; · = no result given; [ ] = dose if it differs, or a comment.

compound	Sfp PPTase inh	CtBP-E1A inh	Menin MLL FP FL	gsp antagonist	gsp ag	TRPV1 PAM	ClpP mod
CC(=O)NN1C(=O)c2ccccc2NC1c1ccoc1 (configuration not stated)	8.6%	·	-2.1	3.7%	10.3%	0.4	4.2%
CC1c2nc3ccccc3n2C(CC(=O)NCc2ccccn2)C(=O)N1Cc1ccccc1 (configuration not stated)	-3.9%	-7.8	0.2	3.6%	5.6%	23.1	-1.6%
O=C(Oc1ccc(N2C(=O)CCC2=O)cc1)c1ccccc1	-3.6%	-1.0	3.1	4.8%	13.3%	13.5	-4.1%
Nc1ccc(S(=O)(=O)NCc2ccccn2)cc1	9.4%	7.1	4.7	16.4%	25.8%	8.2	·
CS(=O)(=O)c1ccc(Cl)c(NC(=O)COC(=O)c2c(Cl)cccc2Cl)c1	-1.4%	-6.3	-1.8	-18.4%	3.1%[15.4 µM]	6.1	-9.2%
COC(=O)c1cc(CNC(=O)c2ccc(S(=O)(=O)N(C)c3ccccc3)cc2)ccc1OC	·	1.9	·	?	-1.1%	-17.5	-4.3%
Cc1cccc(NC(=O)CNC(=O)c2ccco2)n1	·	-0.8	·	3.0%	-4.6%	6.1	-2.2%
CCCCSc1nc2c(c(=O)[nH]1)CCC2	5.9%	9.9	-1.6	5.5%	4.1%	-14.1	0.3%

(cont.)
compound	Sfp PPTase inh	CtBP-E1A inh	Menin MLL FP FL	gsp antagonist	gsp ag	TRPV1 PAM	ClpP mod
CC(=O)Nc1ccc(NC(=O)N2CCOCC2)cc1	·	6.0	·	·	-65.2%[inhibitor]	·	1.1%
COc1ccc(C(=O)N/N=C(/C)c2cccc(NC(=O)c3ccncc3)c2)cc1OC	18.6%	-10.2	·	3.7%	18.5%	6.5	-0.5%
Cc1nn(-c2ccccc2)c(C)c1NC(=O)COC(=O)c1ccccc1OC(F)F	14.2%	-1.6	·	12.0%	-1.0%	0.0	-2.4%
Cc1cc(C)nc(N2CCCC(C(=O)NCc3cccc(C(F)(F)F)c3)C2)n1 (configuration not stated)	11.9%	3.2	0.3	2.7%	-46.2%[inhibitor]	-2.0	-14.5%
Cn1nc(C(=O)Nc2cccnc2)c2ccccc2c1=O	8.1%	?	5.0	0.0%	-11.2%	-0.8	0.7%
CCn1c(COc2c(C)cccc2C)nnc1SCC(=O)N1CCN(c2ccccc2)CC1	7.1%	-1.5	-0.3	-18.0%	6.7%	-8.5	-4.3%
Cc1cc(C(=O)OCC(=O)Nc2ccc(F)c(F)c2F)c(C)o1	23.9%	0.0	-4.3	16.0%	-2.1%[15.4 µM]	-3.9	·
COCCCN1CC(=O)N2C(c3ccccc3)c3[nH]c4ccccc4c3C[C@H]2C1=O (some centres not stated)	5.4%	-6.6	1.1	-1.0%	13.3%[15.4 µM]	24.4	-7.0%

Remaining list, next part
compound	Sfp PPTase inh	CtBP-E1A inh	Menin MLL FP FL	gsp antagonist	gsp ag	TRPV1 PAM	ClpP mod
CN(C(=O)COC(=O)CSc1ccccc1)c1c(N)n(Cc2ccccc2)c(=O)[nH]c1=O	·	-6.0	·	·	26.6%	·	-2.0%
O=C(COc1ccc(Cl)cc1)NCc1nnc(SCC(=O)NC2CCCCC2)o1	?	-2.1	-0.9	19.1%	?	12.6	0.2%
COc1ccc(C(=O)Oc2coc(CSc3nnc(NC(=O)c4cccs4)s3)cc2=O)cc1	0.9%	1.4	7.7	-7.8%	6.9%	7.0	28.2µM*
CC1=C(C(=O)N2CCOCC2)CC(CC(=O)NCCN2CCOCC2)C(=O)N1CCC1=CCCCC1 (configuration not stated)	·	-4.2	·	·	-40.6%[inhibitor]	·	0.7%
COC(=O)c1ccc(-n2c(C)cc(C(=O)COC(=O)CNS(=O)(=O)c3ccc(C)cc3)c2C)cc1	8.0%	-18.0	8.9	-15.7%	3.2%[15.4 µM]	1.0	-2.2%
COc1cccc(-c2cc(C(=O)Nc3cc(C)on3)no2)c1	0.8%	41.2	2.9	4.5%	-5.5%	3.3	-3.1%
N#Cc1nccnc1S(=O)(=O)c1cccs1	7.08µM*	-1.5	3.7	0.2%	0.0%[15.4 µM]	6.4	-23.0%
Cc1ccc(-c2cc(-c3ccccc3)nc(NN)n2)cc1	-16.2%	2.9	-1.9	-5.6%	-85.5%[inhibitor]	5.2	·

Complete entries from above:
N#Cc1nccnc1S(=O)(=O)c1cccs1 in the list: Sfp PPTase inh = 7.08µM*; CtBP-E1A inh = -1.5; Menin MLL FP FL = 3.7; gsp antagonist = 0.2%; gsp ag = 0.0%[15.4 µM]; TRPV1 PAM = 6.4; ClpP mod = -23.0%
Cc1ccc(-c2cc(-c3ccccc3)nc(NN)n2)cc1 in the list: Sfp PPTase inh = -16.2%; CtBP-E1A inh = 2.9; Menin MLL FP FL = -1.9; gsp antagonist = -5.6%; gsp ag = -85.5%[inhibitor]; TRPV1 PAM = 5.2; ClpP mod = ·

The list continues:
compound	Sfp PPTase inh	CtBP-E1A inh	Menin MLL FP FL	gsp antagonist	gsp ag	TRPV1 PAM	ClpP mod
O=C(NCCc1c[nH]c2ccccc12)C(=O)NCC1OCCN1S(=O)(=O)c1ccc(F)cc1 (configuration not stated)	5.7%	1.4	2.4	-8.2%	18.6%	5.7	1.0%
CSc1nnc2n(C3CCCCC3)c(=O)c3c4c(sc3n12)CCCC4	6.5%	·	-1.0	·	·	0.7	·
CCCc1n[nH]c2c1C(=O)C(C(=O)OC)C(C)(C)C2 (configuration not stated)	5.7%	4.2	2.0	4.1%	-24.0%	-0.9	0.8%
COC(=O)c1sc2ncn(N)c(=O)c2c1C	9.1%	7.5	0.4	7.1%	-0.3%	0.1	-0.8%
COC(=O)c1[nH]c2cc(OC)ccc2c1NC(=O)CCN1CCCCC1	15.5%	20.2	4.5	-3.1%	-7.7%	7.1	?
CC(C)n1c(-c2cccs2)nc2ccccc21	5.3%	-0.2	-1.8	2.9%	7.8%	7.4	3.98µM*
COC(=O)[C@@H]1C[C@@H](C(=O)O)[C@H](C)C1(C)C	·	8.3	·	1.4%	·	-10.7	0.7%
CC(C)(C)SCCNS(=O)(=O)c1ccc2ccccc2c1	7.0%	14.2	0.2	-2.4%	-7.1%	-13.4	0.5%

(next part)
compound	Sfp PPTase inh	CtBP-E1A inh	Menin MLL FP FL	gsp antagonist	gsp ag	TRPV1 PAM	ClpP mod
COc1ccc(OC)c(-c2csc(N(Cc3ccco3)C(=O)c3ccco3)n2)c1	-6.2%	-16.7	1.4	-14.7%	-15.7%[15.4 µM]	14.0	·
O=C(Nc1ccc(Cl)c(S(=O)(=O)N2CCCCC2)c1)c1ccco1	·	-23.8	·	?	8.8%	-11.9	-1.3%
CC(=O)Nc1ccc2c(COC(=O)[C@H](C)N3C(=O)C4CCCCC4C3=O)cc(=O)oc2c1 (some centres not stated)	-9.8%	-12.4	-1.1	-1.2%	11.5%[15.4 µM]	-15.9	·
CSC1=NCCN1C(=O)c1ccc(S(=O)(=O)N2CCCCC2)cc1	10.5%	0.9	-0.5	3.0%	-25.1%	-22.8	2.0%
Cc1ccc(S(=O)(=O)N2CCOCC2)cc1NC(=O)COC(=O)CCc1c[nH]c2ccccc12	·	-14.1	·	-8.3%	6.2%	·	-3.5%
COc1ccc2nc(Nc3nc4cc5c(cc4s3)OCCO5)sc2c1	-0.2%	12.3	-2.2	1.3%	11.6%	10.4	?
Cc1cccc(NC(=O)C(=O)NCCCc2ccccc2)c1	10.0%	·	0.7	·	·	-3.2	·
O=c1[nH]c2c(n(C3CCCCC3)c1=O)CCC2	0.3%	5.0	-0.2	9.6%	?	17.3	-0.3%

Next section.
compound	Sfp PPTase inh	CtBP-E1A inh	Menin MLL FP FL	gsp antagonist	gsp ag	TRPV1 PAM	ClpP mod
Cc1ccc(CSc2nc3ccccc3c(=O)[nH]2)cc1	17.3%	-5.0	-0.5	0.8%	-4.7%[15.4 µM]	1.3	·
C=C(Cl)COc1cc(C)cc2oc(=O)cc(CC)c12	7.2%	4.8	-3.1	6.4%	19.5%	18.5	31.6µM*
O=C(C[n+]1cccc2ccccc21)c1ccc(Br)cc1	-1.4%	·	?	11.0%	-11.0%	-0.6	?
COc1ccc(CCC(=O)Nc2ccc(S(=O)(=O)Nc3nccc(C)n3)cc2)cc1	10.4%	-1.5	3.1	-10.3%	-11.9%	-6.7	·
O=C(NCc1ccncc1)C1CCN(S(=O)(=O)Cc2ccccc2)CC1	17.3%	36.9	-0.3	4.4%	?	3.8	1.2%
CN(CC(=O)Nc1ccccc1C(F)(F)F)C(=O)Cc1ccc(S(=O)(=O)N2CCOCC2)s1	·	10.9	·	9.7%	-23.0%	10.1	0.7%
Cc1ccc(-c2noc(CCC(=O)NCc3ccccc3CN3CCOCC3)n2)cc1	·	0.0	·	?	-5.9%	-1.2	-0.3%
C=CCn1c(SCC(=O)Nc2cc(C)on2)nc2sc(CC)cc2c1=O	1.8%	0.0	1.4	-1.8%	0.4%	0.3	2.1%

Next part.
compound	Sfp PPTase inh	CtBP-E1A inh	Menin MLL FP FL	gsp antagonist	gsp ag	TRPV1 PAM	ClpP mod
Cc1nc(N2CCN(Cc3ccc4c(c3)OCO4)CC2)c2oc3ccccc3c2n1	·	-22.4	·	-13.7%	-4.0%[15.4 µM]	·	·
CCc1ccc(NC(=O)CCC(=O)Nc2nnc(C(F)(F)F)s2)cc1	11.2%	5.9	·	11.7%	7.4%	2.4	0.7%
O=C(COc1ccc2ccc(=O)oc2c1)Nc1ccc(CCO)cc1	24.2%	-5.8	0.4	-4.1%	17.3%	-0.3	3.1%
COCCSc1nnc(NC(=O)c2ccc([N+](=O)[O-])cc2)s1	8.7%	·	2.2	-6.4%	-0.4%	-18.6	-0.1%

Source: PubChem BioAssay (National Center for Advancing Translational Sciences (NCATS))
